BJeLR viability: BJeLR cell viability loss; inhibition, % (concentration not given with the values); hit rate 0.17% among 300,000; BJeLR (HRASV12) viability, CellTiter-Glo ATP luminescence, 48 h; reference of the scale not given here;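 active = replicate mean above 50%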;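 also: 50 nL library stock added to about 25 µL; numbers are from one replicate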
Numbers without * were called inactive. The list is partial; the hit share may differ from the screen's.

SMILES	BJeLR viability
C#CCOCCOCCOCCNc1nc(N2CCN(C(=O)[C@H](CCC(=O)O)n3cc(C(N)Cc4ccc(O)cc4)nn3)CC2)nc(N2CCN(C(=O)[C@H](CCCCN)n3cc(C(N)[C@H](C)CC)nn3)CC2)n1 (stereo partly specified)	-5
C(=N\Nc1nc2ccccc2s1)/c1ccccn1	0
O=C(O)c1cc(-c2c[nH]c3ccccc23)nc2cc3ccccc3cc12	-3
C#CCOCCOCCOCCNc1nc(N2CCN(C(=O)[C@H](C)n3cc(CCCN=C(N)N)nn3)CC2)nc(N2CCN(C(=O)[C@H](Cc3ccc(O)cc3)n3cc(CCO)nn3)CC2)n1	1
C=CC[C@@H]1C=C[C@H](O/N=C/[C@@H](NS(=O)(=O)c2ccc(C)cc2)[C@H](C)/C=C/CC(=O)OC)[C@@H](CO)O1	3
COc1ccc(C2CC(=O)C(C(c3ccc(O)cc3)C3C(=O)CC(c4ccc(OC)cc4)CC3=O)C(=O)C2)cc1 (stereo unspecified)	0
Cc1ccc(C(=O)C(NC(=O)c2ccco2)Nc2sc3c(c2C(N)=O)CCCC3)cc1 (stereo unspecified)	-3
Cc1cc(C)nc(S/C=C/C(=O)c2ccc(F)cc2)n1	-2
C/C(CCN1CCCCc2nc(C)c(C)cc21)=N\O[C@@H](C)CN1CCCCc2nc(C)c(C)cc21	-3
Cn1nc(OC(=O)Nc2ccccc2)cc1C(F)(F)F	-4
CCOc1ccc(S(=O)(=O)n2ccnc2C)cc1	-6
O=C(NC(c1ccccc1)c1cc(Cl)c2cccnc2c1O)c1cccnc1 (stereo unspecified)	29
O=[N+]([O-])c1ccc(-c2ccc(/C=N/c3c(-c4ccco4)nc4ccccn34)o2)c(Cl)c1	0
Nc1c2c(nc3c1CCC3)CCCC2	-3
COc1cc(C)c(CNc2ccc(OC)c(OC)c2)cc1C	-6
Cc1nn(C)c(C)c1/C=N/NC(=O)c1csc2ccccc12	9
O=C(Cc1cc(=O)[nH][nH]1)N/N=C/c1ccccc1Cl	-1
Cc1nc2ccccn2c1C(=O)N/N=C/c1ccc([N+](=O)[O-])cc1	0
C/C(=C/CCC(C)C1CCC2(C)C3CCC4C(C)(C)C(=O)CCC4(C)C3=CCC12C)C(=O)O (stereo unspecified)	-1
CC(Oc1ccccc1)C(=O)N1CCC2(CC1)Oc1ccc(Cl)cc1C(=O)C21CC(c2ccccc2)=NO1 (stereo unspecified)	-7
O=[N+]([O-])c1cc(C(F)(F)F)ccc1N/N=C/c1cc2ccccc2nc1Cl	-8
C/C=C(\C)C(=O)OC1C(C)=C2C(C1OC(=O)CCCCC)C(C)(OC(C)=O)CC(OC(=O)CCC)C1(O)C2OC(=O)C1(C)O (stereo unspecified)	1
COC(=O)C1=C(C(=O)OC)[C@@H]2N(C)c3ccccc3[C@@]23C[C@@H](CO)N=C3N1	1
CCN(CC)c1ccc(/C=C/c2nc3ccccc3s2)cc1	6
COc1cc(/C=N/N=C/c2c[nH]c(=O)c(C#N)c2Nc2ccccc2)ccc1O	-2
ClCC1=Nc2cccc3cccc(c23)N1	-11
COc1ccc(CN2C(=O)C(C)S/C2=N/N=C/c2ccco2)cc1 (stereo unspecified)	1
O=C(Nc1nc2ccc([N+](=O)[O-])cc2s1)c1ccco1	9
CCC(C)n1c(-c2ccco2)nc2nc3ccccc3nc21 (stereo unspecified)	3
COCc1cc(C)nc(OCC(=O)N/N=C/c2ccc(-c3cccc([N+](=O)[O-])c3)o2)c1C#N	6
Cc1ccc2[nH]c3c(c2c1)CN(C(=O)CN1CCN(C(=O)c2ccco2)CC1)CC3	7
N#C[C@H]1[C@H](c2ccccc2)[C@](C#N)(C(=O)c2ccccc2)[C@@H]2C=Cc3ccccc3N21	-4
CCC(=O)Nc1nc2n(n1)C(c1ccc(OC)cc1)C=C(c1ccccc1)N2 (stereo unspecified)	-4
Cc1ccc(CNC(=O)c2ccc3nc4[nH]c5ccccc5c4nc3c2)cc1	1
O=C(COC(=O)CC(c1ccccc1)c1ccccc1)Nc1ccc(F)c(F)c1	-7
O=C(C1=NN[C@@H]2C(=O)N(Cc3ccccc3)C(=O)[C@H]12)c1ccc(F)cc1	9
C/C(CCC(=O)OC[C@H]1O[C@H](C#Cc2ccccc2)C=C[C@@H]1Oc1ccc(C)cc1)=N\OC[C@@H](O)[C@H]1O[C@@H]2OC(C)(C)O[C@@H]2[C@H]1O	1
CC(C)c1cc(C(C)C)c(S(=O)(=O)N2c3ccccc3[C@]3(Br)C[C@H]4C(=O)N[C@@H](Cc5ccccc5)C(=O)N4[C@H]23)c(C(C)C)c1	0
O=C1NN(c2ccc(Cl)c(Cl)c2)C(=O)/C1=C/c1cccc(OC(=O)c2cccs2)c1	-3
COc1ccc2[nH]c(=O)c(-c3nnn(-c4ccc(Cl)c(Cl)c4)n3)cc2c1	9
C=CCC(Nc1ccccc1)c1ccc(OC)c(OC)c1 (stereo unspecified)	1
Cc1cc(C(=O)N/N=C/c2ccc(-c3ccc(C)c(Cl)c3)o2)n[nH]1	-3
Cc1ccccc1Nc1nc(-c2sc(NC(=O)c3cccc(Cl)c3)nc2C)cs1	-1
Oc1ccc(N=Nc2ccc3c(c2)OCO3)c2ccccc12	44
COC/C=C/C1=CC2=CC(=O)C(C)(OC(=O)c3cnc4ccccc4n3)C(=O)C2=CN1CCc1c[nH]c2ccccc12 (stereo unspecified)	10
CC1=C(/C=C/C(C)=C/C=C/C(C)=C/C=C/C=C(C)/C=C/C=C(C)/C=C/C2=C(C)CCCC2(C)C)C(C)(C)CCC1	-9
O=C1NC(=O)[C@@H]2C3c4ccccc4C=CN3[C@H](C(=O)c3cccs3)[C@H]12 (stereo partly specified)	-2
CC(C)(Oc1ccc(-c2ccco2)cc1)C(=O)O	2
Cc1ccc(NC(=S)/C(=C(\[O-])c2ccc(C)c([N+](=O)[O-])c2)[n+]2ccccc2)cc1C	-2
COc1ccc(CNc2cc(C)cc(C)c2)cc1OC	4
Cc1nn(-c2ccccc2)c(C)c1-c1cc(C(=O)N/N=C/c2cccnc2)[nH]n1	8
COc1cccc(C2=CC(c3ccc(N(C)C)cc3)n3ncnc3N2)c1 (stereo unspecified)	-10
COC(=O)Nc1nc2ccc(C(=O)c3ccc(F)cc3)cc2[nH]1	27
CC(C)c1ccc(C2C3CSCC=C3C(C#N)=C(N)C2(C#N)C#N)cc1 (stereo unspecified)	-12
O=C(c1ccc(N2CCN(C3CC(=O)N(c4ccc(F)cc4)C3=O)CC2)cc1)c1cccnc1 (stereo unspecified)	-5
O=C(O)/C(=C/c1ccco1)c1ccccc1	9
Cc1nc(NC(=O)c2ccc(Cl)cc2)sc1-c1csc(Nc2cccc(F)c2)n1	8
CCC1S/C(=N/N=C/c2ccco2)N(Cc2ccc(F)cc2)C1=O (stereo unspecified)	12
CCn1c(SCC(=O)N/N=C/C=C/c2ccccc2[N+](=O)[O-])nnc1-c1ccc(Cl)cc1	3
CSc1nnc2n(Cc3ccccc3)c(=O)c3c4c(sc3n12)COC(C(C)C)C4 (stereo unspecified)	-7

(cont.)
SMILES	BJeLR viability
Cc1ccc(N2C(=O)c3cccc4c(C(=O)O)ccc(c34)C2=O)cc1	4
COc1cccc(-c2nnc3sc(-c4ccc(C)cc4)nn23)c1	-4
CC(C)=CCc1c(O)c(CC=C(C)C)c2c(c1O)-c1cc(O)c(O)cc1CC2	42
O=C1Nc2ccccc2C12OCCS2 (stereo unspecified)	-7
COc1ccc(NC(=S)N(C(C)C)C2CCN(C(C)C)CC2)cc1Cl	-4
Cc1ccc(N(CCC(=O)Nc2nnc(C3CC3)s2)S(=O)(=O)c2ccccc2)cc1	12
COC(=O)c1cc(C)nc(Sc2ccccc2N)n1	-3
C/C(=N\NC(=O)c1ccccn1)c1ccc(C(=O)O)s1	0
CCN(CC)c1ccc(/C=N/NC(=O)C(O)(c2ccccc2)c2ccccc2)o1	4
Cn1cccc1/C=N/NC(=O)c1sc2cc(Cl)ccc2c1Cl	-2
CCC/C=C(\CCC)C(NC(=O)c1ccc(C(=O)OC)cc1)c1ccc(C(=O)OC)cc1 (stereo unspecified)	9
O=C(CN1C(=O)NC2NC(=O)NC21)N/N=C/c1ccccc1F (stereo unspecified)	4
Nc1ccc2nc(-c3ccc(-c4nc5ccc(N)cc5[nH]4)cc3)[nH]c2c1	4
COc1cc(OC)cc(-c2nnc(Sc3ccc(C=O)cc3[N+](=O)[O-])o2)c1	7
O=C(C1=C[C@@H]2[C@H]3C(=O)N(c4ccccc4)C(=O)[C@H]3[C@@H](C(=O)c3ccc(Cl)cc3)N2C=C1)c1ccccc1	-5
O=[N+]([O-])c1ccc(Cl)c(/C=N/n2c(-c3cccnc3)n[nH]c2=S)c1	15
N[C@@H](Cc1ccc(O)c(I)c1)C(=O)O	-18
COC(=O)c1sccc1-c1ccc(C(N)=O)o1	1
CC(C)[C@]12O[C@H]1[C@@H]1O[C@]13[C@]1(O[C@H]1C[C@H]1C4=C(CC[C@@]13C)C(=O)OC4)[C@@H]2O	68*
Oc1ccc(N=C/C=C/c2ccc(Br)cc2)cc1-c1nc2ccccc2s1	0
COc1cc(OC)c(C2CC(=O)N3CN(c4ccccc4C)CSC3=C2C#N)cc1OC (stereo unspecified)	1
Cn1cccc1CNCCc1ccccc1	26
O=C(/C=C/c1ccc(F)cc1)Nc1nc2ccccc2[nH]1	-8
Cc1ccc(NC(=S)Nc2ccc(S(=O)(=O)Nc3ncccn3)cc2)cc1Cl	8
COc1ccc(OC)c(NC(=O)C2C3CCC(O3)C2C(=O)O)c1 (stereo unspecified)	1
COc1ccc2c(=O)c3c(=O)n(-c4ccc(C)cc4)c(-c4ccccc4)nc3oc2c1	6
CCCCCCCCCCCCCCCC(=O)OC[C@H](COP(=O)([O-])OCC[N+](C)(C)C)OC(=O)CCCCCCCCCCCCCCC	-16
CC(C)(C)OC(=O)NCCCC1=CC2=CC(=O)C(C)(OC(=O)c3ccco3)C(=O)C2=CO1 (stereo unspecified)	0
CCOc1cc(/C=C2/C(=O)ON=C2C)ccc1OCc1ccccc1	-5
COc1ccccc1N1CCN(/N=C/c2ccc(O)c(O)c2)CC1	2
Cc1ccc(C)c(N2CCN(S(=O)(=O)c3ccc4c(c3)CCC(=O)N4)CC2)c1	-5
C=CCn1c(-c2ccc(=O)n(Cc3ccccc3)c2)n[nH]c1=S	-8
Cn1c(/N=C/c2cc(Cl)ccc2O)nc2ccccc21	6
C#CCOCCOCCOCCNc1nc(N2CCN(C(=O)C([C@@H](C)CC)n3cc(C(N)COC(=O)C(F)(F)F)nn3)CC2)nc(N2CCN(C(=O)[C@H](Cc3ccc(O)cc3)n3cc(C(N)[C@H](C)CC)nn3)CC2)n1 (stereo partly specified)	8
COc1ccc(C2C=C(c3ccccc3)Nc3nc(NC(C)=O)nn32)cc1 (stereo unspecified)	-4
Nc1c(C(=O)NCCc2ccc(Cl)cc2)sc2ccc(S(=O)(=O)N3CCCCC3)cc12	2
CCOC(=O)c1[nH]c2cc3c(cc2c1NC(=O)CN1CCCCC1C)OCO3 (stereo unspecified)	1
O=S(=O)([O-])CCC[n+]1c(/C=C\Nc2ccccc2)oc2ccc(-c3ccccc3)cc21	-10
COc1ccc(C(C#N)Nc2ccccc2)cc1 (stereo unspecified)	-11
Oc1ccc(O)c(/C(=N/Nc2ccccc2)c2ccccc2)c1	2
CCN(CC)CCCNC(=O)c1ccc2c(SCC(=O)O)c3c(nc2c1)CCC3	7
CN(CCCN1c2ccccc2CCc2ccccc21)CC(=O)c1ccc(Cl)cc1	-8
O=C1C=CCC(/C=C/c2ccccc2)O1 (stereo unspecified)	22
COc1ccc2nc(/C=N/NC(=O)[C@H](C)NC(=O)OC(C)(C)C)ccc2c1	-5
Cc1cccc(-n2c(N)cc(=O)nc2SCC(=O)Nc2nnc(CC(C)C)s2)c1	2
COC(=O)c1cc(N2C(=O)C3C(C2=O)C2(C)C=CC3(C)O2)ccc1Cl (stereo unspecified)	2
CC(=O)[C@@H]1[C@@H]2C(=O)N(C3CCCCC3)C(=O)[C@@H]2C2c3ccccc3C=CN21 (stereo partly specified)	0
COc1ccc(OC)c(NS(=O)(=O)c2ccc(Br)s2)c1	-14
Cc1ccc(Nc2nc(-c3ccncc3)nc3ccccc23)cc1	15
O=c1c(-c2nc3ccccc3o2)c2oc3ccccc3n2c2ccccc12	-9
Cc1ccc(C(=O)n2nnc3ccccc32)cc1	-6
O=C(C1=C[C@H](c2csc3ccccc23)C[C@H](OCc2ccc(CO)cc2)O1)N1CCCCCCC1	9

Compounds from the list above that contain a furan ring, fused or not (14):
SMILES	BJeLR viability
Cc1ccc(C(=O)C(NC(=O)c2ccco2)Nc2sc3c(c2C(N)=O)CCCC3)cc1 (stereo unspecified)	-3
O=[N+]([O-])c1ccc(-c2ccc(/C=N/c3c(-c4ccco4)nc4ccccn34)o2)c(Cl)c1	0
COc1ccc(CN2C(=O)C(C)S/C2=N/N=C/c2ccco2)cc1 (stereo unspecified)	1
O=C(Nc1nc2ccc([N+](=O)[O-])cc2s1)c1ccco1	9
CCC(C)n1c(-c2ccco2)nc2nc3ccccc3nc21 (stereo unspecified)	3
COCc1cc(C)nc(OCC(=O)N/N=C/c2ccc(-c3cccc([N+](=O)[O-])c3)o2)c1C#N	6
Cc1ccc2[nH]c3c(c2c1)CN(C(=O)CN1CCN(C(=O)c2ccco2)CC1)CC3	7
Cc1cc(C(=O)N/N=C/c2ccc(-c3ccc(C)c(Cl)c3)o2)n[nH]1	-3
CC(C)(Oc1ccc(-c2ccco2)cc1)C(=O)O	2
O=C(O)/C(=C/c1ccco1)c1ccccc1	9
CCC1S/C(=N/N=C/c2ccco2)N(Cc2ccc(F)cc2)C1=O (stereo unspecified)	12
CCN(CC)c1ccc(/C=N/NC(=O)C(O)(c2ccccc2)c2ccccc2)o1	4
COC(=O)c1sccc1-c1ccc(C(N)=O)o1	1
CC(C)(C)OC(=O)NCCCC1=CC2=CC(=O)C(C)(OC(=O)c3ccco3)C(=O)C2=CO1 (stereo unspecified)	0

Compound activity from PubChem.
